TRPV1 potentiator – potentiators of human vanilloid receptor 1 (TRPV1). AID 540277. 320,000 tested, 0.02% active. potentiation, % at 8.33 µM. Q8NER1. TRPV1-expressing cells, Fluo-8 calcium influx, capsaicin EC20 potentiation; host cell line not named in the record; control for the full effect not named in the record; active means potentiation above 80%; inconclusive means 30% to 80%; inactive means below 30%; note: 0% is about no effect
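TRPV1-expressing cells were cultured overnight at 35.5C and loaded with Fluo-8 calcium dye for 40 to 90 min at room temperature. After a 10 s baseline, compound was added and calcium influx was read kinetically for 3 min (ex 480/em 520 nm).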
Sfp inh – Sfp phosphopantetheinyl transferase inhibition; Q9F4F7; Biochemical Sfp PPTase activity, qHTS; 310,000 tested, 3.5% active; Potency, µM, for the others: max response, negative = inhibition, most hits filed as inhibitors; active = well fitted inhibition curve with a large enough effect; inconclusive = small, poorly fitted or top-dose-only effect, or another doubt; inactive = no such curve, though single readings can be large or run the other way;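 note: the enzyme is Sfp with the accession as filed and its product quenches rhodamine fluorescence; potency is the fitted concentration of half-maximal effect; 0% = enzyme reaction without inhibitor and -100% = no enzyme wells; top concentration of the series not given in the record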
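Reaction rates are the 30-min fluorescence difference (ex 525, em 598 nm) in wells containing 15 nM Sfp, 5 uM rhodamine-CoA and 12.5 uM BHQ-2-YbbR at pH 7.6 with 10 mM MgCl2.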
TRPML1 ag – human mucolipin-1 channel agonism; 410,000 tested, 0.12% active; activation, % (test concentration not listed); TRPML1-expressing cells, Ca2+ dye fluorescence, FDSS; host cell line not named in the record; reference of the full effect not given here; Q9GZU1; in the data active = activation above about 50%; inconclusive = about 30% to 50%; inactive = below about 30%; note: 0% is about no effect; the text of the record puts the active cut at 80%
Target sequence (Q9GZU1 whole entry, looked up): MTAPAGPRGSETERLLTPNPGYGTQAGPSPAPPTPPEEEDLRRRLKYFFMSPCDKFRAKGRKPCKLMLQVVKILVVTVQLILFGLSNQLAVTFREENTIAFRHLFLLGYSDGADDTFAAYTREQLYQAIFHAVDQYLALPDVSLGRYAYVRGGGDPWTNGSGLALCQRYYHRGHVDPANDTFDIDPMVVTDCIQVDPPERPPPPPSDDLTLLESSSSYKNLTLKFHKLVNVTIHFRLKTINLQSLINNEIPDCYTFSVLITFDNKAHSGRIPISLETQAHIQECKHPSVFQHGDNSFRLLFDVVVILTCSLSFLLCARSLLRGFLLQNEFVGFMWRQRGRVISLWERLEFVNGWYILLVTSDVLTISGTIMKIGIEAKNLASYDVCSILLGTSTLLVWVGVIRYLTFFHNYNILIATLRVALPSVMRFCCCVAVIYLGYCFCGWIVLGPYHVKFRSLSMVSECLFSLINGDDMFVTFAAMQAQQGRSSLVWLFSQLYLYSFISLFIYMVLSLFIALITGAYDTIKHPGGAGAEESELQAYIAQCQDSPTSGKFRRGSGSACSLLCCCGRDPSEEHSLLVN
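In this qHTS format, compounds were pin-transferred onto Ca8-dye-loaded TRPML1-DL cells induced with Tet overnight, and intracellular Ca2+ fluorescence was recorded kinetically for 110 s after a 10 s baseline. A subsequent 4uM final 54-4 (EC80) addition followed by a second 110 s read served as the antagonist phase.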
TRPML1 inh – human mucolipin-1 channel inhibition | Q9GZU1 | 390,000 tested, 0.02% active | TRPML1-inducible cells, Ca2+ dye fluorescence, FDSS; active compounds read low; inhibition of EC80 agonist-evoked calcium signal | activity change, negative = inhibition, % (test concentration not listed) | AID 624415; in the data active means activity change below about -50%; inconclusive means about -30% to -50%; inactive means above about -30%;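 note: stimulus is agonist 54-4 at its EC80 concentration; % is set by controls: 0 for no effect and ±100 for the full control effect; compound concentration not given in the record; the text of the record puts the active cut at -80%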
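Calcium fluorescence in TRPML1-DL cells induced overnight with Tet: a 110 s read after compound pin addition, then a 110 s antagonist read after challenge with 54-4 at 4 uM final (EC80).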
ClpP mod – qHTS Assay for Activators of ClpP; ATP-dependent Clp protease proteolytic subunit (Bacillus subtilis (strain 168)), P80244; purified B. subtilis ClpP, FRET peptide cleavage, 20 min; Potency, µM (top dose mostly 57.5 µM), for inactives: at the top dose activity change, negative = active; 340,000 tested, 1.9% active; active = well fitted falling curve with a large enough effect; inconclusive = small, poorly fitted or top-dose-only effect; inactive = no such curve, though single readings can be large or run the other way; note: potency is the fitted concentration of half-maximal effect; the source files actives as falling curves though it sought activators and does not explain the sign; nearly all actives have a fitted effect of over 65% in size; many hits overshoot -100%
Target sequence (P80244 whole entry, looked up): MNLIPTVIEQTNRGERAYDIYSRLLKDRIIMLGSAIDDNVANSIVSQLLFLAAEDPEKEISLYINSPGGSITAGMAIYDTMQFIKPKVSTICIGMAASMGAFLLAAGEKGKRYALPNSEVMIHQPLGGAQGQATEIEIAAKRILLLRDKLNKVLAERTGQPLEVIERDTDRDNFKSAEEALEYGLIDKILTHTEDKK
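Buffer: 100 mM Tris/HCl pH8, 100 mM KCl, 0.05% low protease BSA, 2.5% glycerol, 0.01% Tween-20. ClpP 10 microg/mL final; 20 min RT; delta FRET normalized to ADEP and DMSO controls.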
Menin MLL FP FL – menin-MLL binding inhibition, fluorescein peptide. Fluorescence polarization, fluorescein-MLL peptide displacement from menin. FP activity change, % at 61.4 µM. 290,000 tested, under 10 active; inconclusive = falling polarisation curve, or a change in total fluorescence; inactive = total fluorescence flat and polarisation flat or rising; no compound was filed as active; the % refers to the polarisation; negative = inhibition;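 note: % of control where 0% means no effect; inhibitors lower the polarisation; unlabelled MLL peptide was the positive control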
PINK1 modulator – modulators of PINK1 expression; PINK1 immunofluorescence, high-content cytometry, 24 h; 410,000 tested, 0.2% active; Potency, µM (titrated, usually from 76.6 µM), inactives show top-dose activation (PINK1 increase), most hits filed as activators; active = well fitted activation curve with a large enough effect; inconclusive = small, poorly fitted or top-dose-only effect; inactive = flat fitted curve, though single readings scatter; cell line not stated here;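 note: potency is the fitted concentration of half-maximal effect; % of control where 0% means no effect; nearly all actives have a fitted effect of over 65% in size; a mitochondrial uncoupler was the plate control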
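Measures PINK1 amount and localization on or inside mitochondria by immunofluorescence. Stable cells get compounds at 5 concentrations for 24 hours before fixation and staining; CCCP controls included.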
Numbers without * were called inactive; & = joins results of further samples; [ ] = another dose, or the depositor's remark. Not a hit list (roughly 4.4% active in at least one column).

For COc1ccc(NCC(O)Cn2cnc3c2c(=O)n(C)c(=O)n3C)cc1 (configuration not stated) the results were TRPV1 potentiator 21, Sfp inh -11%, TRPML1 ag -0.1, TRPML1 inh 11, ClpP mod -0.4%, Menin MLL FP FL 12 and PINK1 modulator 0.3%.
Screening O=C(Nc1nc(-c2ccccc2)cs1)c1cccc([N+](=O)[O-])c1C(=O)O returned TRPV1 potentiator 8, Sfp inh 6%, TRPML1 ag 0.1, TRPML1 inh -12, Menin MLL FP FL -1.7 and PINK1 modulator -0.7%.
For O=C(Nc1ccc(-c2csnn2)cc1)C(Cl)(Cl)Cl the results were TRPV1 potentiator -10, Sfp inh 13%, TRPML1 ag -0.6, TRPML1 inh 31, ClpP mod 0.8%, Menin MLL FP FL -0.9 and PINK1 modulator 1.5%.
Screening CCn1ccnc1CN(C)Cc1cn(-c2ccc(C)cc2)nc1-c1cccc(C)c1 returned TRPV1 potentiator -36, Sfp inh inconclusive, TRPML1 ag 3.3, TRPML1 inh 78, Menin MLL FP FL 0.9 and PINK1 modulator 5.7%.
CCCCN(C)C(=O)c1cn(-c2cccc(OC)c2)c(=O)c2ccccc12 was read as TRPV1 potentiator 4, Sfp inh 9%, TRPML1 ag 1.4, TRPML1 inh 7, ClpP mod -16%, Menin MLL FP FL 5.2 and PINK1 modulator -0.7%.
Screening CCc1ccccc1NC(=O)Nc1cc(C(=O)NCc2ccccc2OC)ccc1N1CCCC1 returned TRPML1 ag -0.3, TRPML1 inh -13, ClpP mod 0.1% and PINK1 modulator -0.2%.
Screening CCCCN(CC)CCNC(=O)Cn1cnc2sc(C)c(S(=O)(=O)N3CCC(C)CC3)c2c1=O returned TRPV1 potentiator 2, Sfp inh -2%, TRPML1 ag 0.0&-0.6, TRPML1 inh 32&8, ClpP mod -2.3%, Menin MLL FP FL 2.1 and PINK1 modulator -0.1%&1.3%.
Screening Cc1ccc(-n2c(=O)c3sc4ccccc4c3n(C)c2=O)cc1F returned TRPML1 ag -0.7, TRPML1 inh 0, ClpP mod 3.7% and PINK1 modulator 0.5%.
Screening C=CCNC(=O)C1CC1(c1ccc(C)cc1)c1ccc(C)cc1 (configuration not stated) returned TRPV1 potentiator -14, Sfp inh 8%, TRPML1 ag -0.9, TRPML1 inh -25, ClpP mod 0.9%, Menin MLL FP FL 2.2 and PINK1 modulator 0.8%.
`COC(=O)C1=C[C@@H](C(=O)OC)C2C3=C(C(=O)[C@]2(CC(C)C)NC(=O)c2ccccc2)[C@H](C)n2c(=O)n(-c4ccccc4)c(=O)n2[C@@H]3C1` (some centres not stated) gave Sfp inh 3%, TRPML1 ag 0.3, TRPML1 inh -5 and Menin MLL FP FL 6.3.
CCOc1ccc(NC(=O)CN(C)C(=O)c2cccc(S(=O)(=O)N3CCN(C)CC3)c2)cc1OCC was read as TRPML1 ag 0.1, TRPML1 inh 2, ClpP mod 2.1% and PINK1 modulator -1.0%.
Screening CCC(Sc1nncn1C)C(=O)Nc1nnc(-c2ccccc2Cl)s1 (configuration not stated) returned TRPV1 potentiator 4, Sfp inh 6%, TRPML1 ag -0.2, TRPML1 inh 0, ClpP mod -6.1%, Menin MLL FP FL -0.1 and PINK1 modulator -1.0%.
`COc1ccc(C2N(c3ccccc3)C(=O)C2(F)F)cc1OC` (configuration not stated) gave TRPV1 potentiator 11, Sfp inh 3%, TRPML1 ag 0.3, TRPML1 inh 17, ClpP mod -1.2%, Menin MLL FP FL -3.6 and PINK1 modulator 2.5%.
`C=CCOc1c(OC)cc(Cl)cc1C1NC(=O)NC(C)=C1C(C)=O` (configuration not stated) gave TRPV1 potentiator 28, Sfp inh 9%, TRPML1 ag -1.0, TRPML1 inh -1, ClpP mod -0.5%, Menin MLL FP FL -7.9 and PINK1 modulator -1.4%.
`CC(OC(=O)[C@H](C)NC(=O)c1ccccc1Cl)C(=O)NCc1ccc2c(c1)OCO2` (some centres not stated) gave TRPV1 potentiator 1, TRPML1 ag 0.3, TRPML1 inh 5, ClpP mod 2.2% and PINK1 modulator -2.1%.

3 records picked at random from the list so far, as already listed:
Screening Cc1ccc(-n2c(=O)c3sc4ccccc4c3n(C)c2=O)cc1F returned TRPML1 ag -0.7, TRPML1 inh 0, ClpP mod 3.7% and PINK1 modulator 0.5%.
`COC(=O)C1=C[C@@H](C(=O)OC)C2C3=C(C(=O)[C@]2(CC(C)C)NC(=O)c2ccccc2)[C@H](C)n2c(=O)n(-c4ccccc4)c(=O)n2[C@@H]3C1` (some centres not stated) gave Sfp inh 3%, TRPML1 ag 0.3, TRPML1 inh -5 and Menin MLL FP FL 6.3.
CCOc1ccc(NC(=O)CN(C)C(=O)c2cccc(S(=O)(=O)N3CCN(C)CC3)c2)cc1OCC was read as TRPML1 ag 0.1, TRPML1 inh 2, ClpP mod 2.1% and PINK1 modulator -1.0%.

Next part.
`NC(=O)c1cc([N+](=O)[O-])c(Cl)cc1NCc1ccccn1` gave TRPV1 potentiator inconclusive, TRPML1 ag -1.1, TRPML1 inh -7, ClpP mod -5.4% and PINK1 modulator 0.4%.
`Cn1nc(C(=O)OCC(=O)Nc2sccc2C(N)=O)c2ccccc2c1=O` gave TRPV1 potentiator 11, Sfp inh 2%, TRPML1 ag 0.8, TRPML1 inh -9, Menin MLL FP FL 0.4 and PINK1 modulator 3.8%.
For O=C(Nc1ccccc1)c1cc(C2COCCN2C(=O)CCCc2ccccc2)on1 (configuration not stated) the results were TRPML1 ag -0.5, ClpP mod 0.7% and PINK1 modulator 1.5%.
For CCOc1ccc(NC(=O)Cn2nnc(-c3nc(-c4ccncc4)no3)c2N)cc1 the results were TRPML1 ag 0.5, TRPML1 inh -5, ClpP mod 3.7% and PINK1 modulator 0.0%.
Cc1cc(=O)[nH]c(SCc2nnnn2-c2ccc(Cl)cc2)n1 was read as TRPV1 potentiator -4, Sfp inh 6%, TRPML1 ag -0.3, TRPML1 inh 0, ClpP mod 0.1%, Menin MLL FP FL -2.3 and PINK1 modulator -1.0%.
CS(=O)(=O)N(CC(=O)Nc1cccc(Cl)c1)c1ccccc1Cl was read as TRPV1 potentiator 1, Sfp inh 8%, TRPML1 ag 0.6, TRPML1 inh -14, ClpP mod 0.5% and Menin MLL FP FL 0.8.
COc1ccc(/C=C/C(=O)OCC(=O)Nc2c(C)cccc2C)cc1 was read as TRPV1 potentiator -6, Sfp inh 11%, TRPML1 ag -0.1, TRPML1 inh -14, ClpP mod -2.8%, Menin MLL FP FL -1.9 and PINK1 modulator 14%.
Screening CN(C)c1ccc(/C=C2\C=Cc3ccccc32)cc1[N+](=O)[O-] returned TRPML1 ag -0.5, ClpP mod -0.5% and PINK1 modulator 1.0%.
Screening Cc1ccc(CN(CC(=O)NCc2ccc3c(c2)OCO3)C(=O)c2csnn2)cc1 returned TRPV1 potentiator 15, Sfp inh -3%, TRPML1 ag 0.3, TRPML1 inh -14, Menin MLL FP FL 4.8 and PINK1 modulator 1.0%.
Screening CCCCOc1ccc(C2C(C(=O)Nc3ccccc3OC)=C(C)Nc3nnnn32)cc1OC (configuration not stated) returned TRPML1 ag -0.9, TRPML1 inh 6, ClpP mod -5.2% and PINK1 modulator 11%.
Screening Cc1cc(=O)oc2c(CN3CCCC3)c(O)ccc12 returned TRPV1 potentiator inconclusive, Sfp inh 19%, ClpP mod 3.7%, Menin MLL FP FL 2.4 and PINK1 modulator -0.2%.
Cc1ccc(C(=O)Nc2ccccc2C(=O)OCc2cc(=O)n3nc(C(C)C)sc3n2)cc1 was read as TRPML1 ag 2.4, TRPML1 inh 3, ClpP mod 3.0% and PINK1 modulator 1.8%.
For O=c1[nH]c(=O)n(Cc2ccccc2)c2nc(-c3ccc(C(F)(F)F)cc3)n(CCO)c12 the results were TRPV1 potentiator 22, Sfp inh 17%, TRPML1 ag -1.2, TRPML1 inh 9, Menin MLL FP FL 2.2 and PINK1 modulator 8.3%.
`O=c1oc2ccccc2c2c1ncn2CCN1CCOCC1` gave TRPV1 potentiator 5, Sfp inh 14%, TRPML1 ag 0.0, TRPML1 inh 13, ClpP mod -2.8%, Menin MLL FP FL 2.3 and PINK1 modulator 0.4%.
`Cc1cccc(CN2C(=O)/C(=C\c3ccc(C(=O)NCCCN4CCN(C)CC4)cc3)Oc3ccccc32)c1` gave TRPV1 potentiator 13, Sfp inh 50µM* and Menin MLL FP FL -0.7.
Nc1[nH]c(=O)nc2nnsc12 was read as TRPML1 ag -0.6, ClpP mod -3.8% and PINK1 modulator 0.9%.
`COc1ccc(/C=N/NC(=S)NC2CCS(=O)(=O)C2)cc1` (configuration not stated) gave TRPV1 potentiator 7, Sfp inh inconclusive, TRPML1 ag 0.0, TRPML1 inh -9, ClpP mod 0.8%, Menin MLL FP FL -6.0 and PINK1 modulator 0.9%.
`N/C(=N\OC(=O)CCCCCN1C(=O)c2ccccc2C1=O)c1ccccc1` gave TRPV1 potentiator -2, Sfp inh 7%, TRPML1 ag 3.2, TRPML1 inh 6, ClpP mod -1.3%, Menin MLL FP FL 1.3 and PINK1 modulator 4.5%[38.3 µM].
Cc1cc2c(cc1S(=O)(=O)N(CCO)Cc1ccccc1)OCC(=O)N2 was read as TRPML1 ag 0.0, TRPML1 inh 16, ClpP mod 0.0% and PINK1 modulator -0.1%.
`CN(C(=O)COC(=O)c1c[nH]c(=O)[nH]c1=O)C1CCCCC1` gave TRPV1 potentiator -4, Sfp inh 12%, TRPML1 ag -0.5, TRPML1 inh 4, ClpP mod -0.2%, Menin MLL FP FL 3.8 and PINK1 modulator -0.7%.
For O=C(CCN1C(=O)C2CC=CCC2C1=O)Nc1ccccc1Cl (configuration not stated) the results were TRPV1 potentiator 4, Sfp inh 12%, TRPML1 ag 0.1, TRPML1 inh -10, ClpP mod 0.3% and PINK1 modulator -0.6%.
For COc1cccc(C(=O)Nc2ccc3c(c2)n(C)c(=O)n3C)c1 the results were TRPV1 potentiator -18, Sfp inh 7%, TRPML1 ag -1.3, TRPML1 inh 10, ClpP mod 0.9%, Menin MLL FP FL 1.5 and PINK1 modulator 7.1%.
Screening CCc1cccc(C)c1NC(=O)C(CC)Sc1nc2ccncc2[nH]1 (configuration not stated) returned TRPML1 ag 0.3, TRPML1 inh 12, ClpP mod 0.6% and PINK1 modulator 1.5%.

High-throughput results from PubChem.
